# Hsc70 – small molecules displacing fluorescent ligand from Hsc70 – biochemical, fluorescence polarization, primary screen (AID 568); Hsc70 fluorescence polarization, probe displacement; higher % means a stronger effect; strong numbers were not always called active; one-dose displacement, % at 20 µM; IC50 in µM for titrated hits; 83,000 tested, under 10 active;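 active means displacement above 50% without optical interference and an IC50 on retest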;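 further: ATPase domain with a fluorescein-tagged ATP probe; 0% = vehicle and 100% = excess ADP; read after one hour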
# WNV protease inh – WNV NS2B-NS3 proteinase inhibition | WNV NS2B-NS3 protease, fluorogenic substrate Ex360/Em465; active compounds read low | z-score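 (tested at a level between 10 and 100 µM)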 | hit rate 0.18% among 65,000;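 active means z-score at -3 or under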;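 further: score is relative to mean and spread of the compound wells of a plate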
# Target sequence (P06935 1371-1501 limits assumed): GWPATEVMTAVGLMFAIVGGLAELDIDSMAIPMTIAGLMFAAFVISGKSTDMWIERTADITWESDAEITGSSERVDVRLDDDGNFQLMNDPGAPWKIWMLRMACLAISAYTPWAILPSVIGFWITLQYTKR
# Target sequence (P06935 1502-1679 limits assumed): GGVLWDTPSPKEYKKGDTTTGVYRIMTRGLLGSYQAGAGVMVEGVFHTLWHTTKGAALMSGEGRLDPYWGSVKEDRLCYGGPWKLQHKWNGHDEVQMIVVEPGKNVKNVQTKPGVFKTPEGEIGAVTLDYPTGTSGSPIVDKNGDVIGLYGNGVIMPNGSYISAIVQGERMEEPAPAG
# MT1-MMP promoter – inhibitors of MT1-MMP promoter transcription, cell-based, luciferase reporter, luminescence (AID 618) | MT1-MMP promoter luciferase reporter cells, luminescence | calls from a first round at 10 µM; hits with a dose series show EC50 in µM | hit rate 0.62% among 87,000;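 active means over half of the reporter light lost at 10 µM or EC50 under 50 µM; inactive means the rest and hits that failed the dose series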;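 further: actives suppress MT1-MMP promoter-driven transcription so potencies describe inhibitors; HT1080 fibrosarcoma cells; overnight exposure; toxic or luciferase-blocking compounds were not removed from the actives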
# The depositor's hits bear a star; i = inactive; nt = not tested or not shown.
SMILES,Hsc70,WNV protease inh,MT1-MMP promoter
Cc1csc(NC(=O)Nc2cccc(Cl)c2)n1,-3.2%,-0.71,i
O=C(Cn1c(=O)sc2ccccc21)OC(CCl)CCl,2.5%,nt,i
O=C(CN(CC1CCCO1)C(=O)CCC(=O)Nc1nccs1)NCc1ccc2c(c1)OCO2 (stereo not given),-0.1%,0.8,i
CCCCNC(=O)CS(=O)Cc1nc(-c2cccs2)oc1C (stereo not given),3.0%,0.64,i
CN1Cc2sc(N)c(C#N)c2CC1(C)C,3.8%,0.45,i
Cn1c(SCc2nc3ccccc3[nH]2)nnc1-c1ccccn1,5.0%,-0.66,i
CN(Cc1ccccc1)Cc1nc2c(c(=O)n(C)c(=O)n2C)n1CCCc1ccccc1,-1.9%,0.89,i
C=CCN1C(=O)C(Cc2ccc(F)cc2)S/C1=N/N=C/c1cccs1 (stereo not given),-3.0%,nt,i
Cc1ccccc1OCCn1c(=O)oc2ccccc21,5.9%,-0.5,i
CCn1c(SCc2c(F)cccc2Cl)nnc1-c1ccco1,-2.3%,-1.38,i
CCN(CC(=O)NCc1cccs1)S(=O)(=O)c1cccc(C(C)=O)c1,-5.3%,0.24,i
O=C1C2(c3ccccc3)CN(CCCO)CC1(c1ccccc1)CN(CCCO)C2,3.2%,-1.13,i
Cn1c(Cc2ccccc2)nnc1SCC(=O)N1CCOCC1,-1.1%,0.05,i
Cn1c(=O)[nH]c(=O)c2c1nc(CN1CCN(c3cccc(Cl)c3)CC1)n2CCCc1ccccc1,3.5%,1.08,i
Cc1nn(C)c(C)c1NC(=O)CSc1nc(C2CC2)nc2c1cnn2-c1ccccc1,0.7%,nt,i

# 4 entries from above in another layout.
CN1Cc2sc(N)c(C#N)c2CC1(C)C
  Hsc70: 3.8% | WNV protease inh: 0.45 | MT1-MMP promoter: i
Cn1c(SCc2nc3ccccc3[nH]2)nnc1-c1ccccn1
  Hsc70: 5.0% | WNV protease inh: -0.66 | MT1-MMP promoter: i
CN(Cc1ccccc1)Cc1nc2c(c(=O)n(C)c(=O)n2C)n1CCCc1ccccc1
  Hsc70: -1.9% | WNV protease inh: 0.89 | MT1-MMP promoter: i
C=CCN1C(=O)C(Cc2ccc(F)cc2)S/C1=N/N=C/c1cccs1 (stereo not given)
  Hsc70: -3.0% | WNV protease inh: nt | MT1-MMP promoter: i

# Next part.
SMILES,Hsc70,WNV protease inh,MT1-MMP promoter
Cc1nc2sc(C(c3ccco3)N3CCN(C(c4ccccc4)c4ccccc4)CC3)c(O)n2n1 (stereo not given),1.6%,-0.07,i
CCCn1c(N)c(C(=O)CSc2nnc(-c3ccco3)n2Cc2ccccc2)c(=O)[nH]c1=O,-1.9%,-0.06,i
O=C(Nc1ccc2c(c1)OCCO2)c1ccc2nccnc2c1,-3.2%,-2.03,i
Nn1cc(-c2ccccc2)nc1SCC(=O)N1CCN(S(=O)(=O)c2ccccc2)CC1,-1.3%,0.11,i
COC(=O)C1=C(C)Nc2ccc(C)cc2S1,-4.1%,-0.04,i
COc1ccc(N2CCn3c2nc2c3c(=O)n(CCc3ccccc3)c(=O)n2C)c(OC)c1,-0.7%,1.11,i
C=CCSc1nnc(NC(=O)CSc2nc3ccccc3o2)s1,-0.9%,-0.85,i
CCOc1ccc(CCNC(=O)C2CCN(c3ccc(N4CCOCC4)nn3)CC2)cc1OCC,-3.0%,1.97,i
FC(F)Sc1nnc(-c2cccs2)n1-c1ccccc1,5.9%,-0.65,i
Cc1cc(NC(=O)CSc2nc3ccccc3c(=O)n2C(C)c2ccccc2)no1 (stereo not given),-3.7%,nt,i
CCOc1ccccc1N1CC(C(=O)Nc2nccs2)CC1=O (stereo not given),4.0%,-0.63,i
Cc1ccc(C)c(-n2c(SCC(=O)NCC3CCCO3)nnc2-c2ccoc2C)c1 (stereo not given),-2.3%,0.93,i
CCOc1cc(C)c(Cl)cc1S(=O)(=O)NCC1CCCO1 (stereo not given),8.9%,0.62,i
CSc1cccc(NC(=O)CN2C(=O)c3ccccc3S2(=O)=O)c1,-1.3%,-0.59,i
Cc1occc1-c1nnc(SCC(=O)N2CCN(c3ccc(F)cc3)CC2)n1C,2.4%,0.21,i

# One compound at a time, from the list above. Values in the order: Hsc70	WNV protease inh	MT1-MMP promoter
# Cn1c(=O)[nH]c(=O)c2c1nc(CN1CCN(c3cccc(Cl)c3)CC1)n2CCCc1ccccc1 in the list: 3.5%	1.08	i
# COC(=O)C1=C(C)Nc2ccc(C)cc2S1 in the list: -4.1%	-0.04	i
# CCN(CC(=O)NCc1cccs1)S(=O)(=O)c1cccc(C(C)=O)c1 in the list: -5.3%	0.24	i

# Following part
SMILES,Hsc70,WNV protease inh,MT1-MMP promoter
CCOC(=O)C1=C(c2ccccc2)NC(SCC(=O)Nc2ccccc2C)=C(C#N)C1c1ccco1 (stereo not given),-3.2%,-1.24,i
CC(C)c1ccc(O)c(NC(=O)c2cccnc2)c1,-0.9%,nt,i
Cc1ccc(C)c(NC(=O)CSc2nnc(Cc3cccn3C)n2-c2ccc(F)cc2)c1,1.0%,0.52,i
Cc1ccc(-c2nc3ccccc3n3nnnc23)cc1,3.0%,2.62,i
CCCCN(C)C(=O)C1CCN(CCCc2ccccc2)CC1,-8.2%,-1.08,i
COc1ccc(OC)c(NC(=O)CSc2nnc(CNc3ccc(C)cc3C)o2)c1,-1.8%,-0.41,i
CCOC(=O)N1CCN(C(=O)CCCN2C(=O)CSc3nc(C)cc(C)c32)CC1,-6.0%,-0.13,i
CC(C)CCN(C(=O)CNC(=O)c1ccco1)C(C(=O)NC1CCCCC1)c1ccco1 (stereo not given),2.0%,-0.6,i
COc1ccccc1-c1nnc(SCC(=O)N2CCC(C)CC2)o1,-2.6%,-0.62,i
O=C1C2ON(c3ccccc3)C(c3cccnc3)C2C(=O)N1Cc1ccccc1 (stereo not given),4.4%,0.05,i
O=S(=O)(c1ccccc1F)N(Cc1ccco1)Cc1nnc(-c2ccccc2Br)o1,-5.8%,0.51,i
COc1ccc(CNC(=O)Oc2ccccc2)cc1Cl,-6.7%,nt,i
O=C(Cn1ncc2c(=O)oc3ccccc3c21)NCCCN1CCCC1=O,5.4%,-0.22,i
O=c1c2ccccc2nc(-c2ccccc2)n1Cc1ccco1,-0.7%,0.69,i
Cc1ccc2c(c1)[nH]c1c(N3CCN(Cc4ccccc4)CC3)ncnc12,-8.6%,0.49,i
CCOC(=O)c1cnc2c(C#N)c(C)nn2c1-c1ccccc1,1.5%,-0.54,i
Cc1ccc(C)n1CCN1CCN(C(=O)CSc2nc3ccccc3nc2N2CCOCC2)CC1,-1.0%,-0.55,i
O=C1CCC(=O)c2oc3ccccc3c2N1,-0.7%,0.25,i
CN(C)C(=O)CSc1nc(SCC(=O)N(C)C)n(-c2ccccc2)n1,1.0%,-0.81,i
CC1=C(C(=O)Nc2ccccc2)C(c2ccncc2)C(C#N)=C(SCC(=O)NC2CC2)N1 (stereo not given),1.8%,0.24,i
O=C(Cn1c(=O)n(Cc2ccco2)c(=O)c2ccccc21)Nc1cccc(Cl)c1,-7.7%,0.12,i
CCOc1ccc(N2CC(C(=O)NCCC3=CCCCC3)CC2=O)cc1 (stereo not given),4.1%,-1,i
Cc1ccc(-n2nnnc2SCc2ccccn2)cc1C,-1.4%,nt,i
COc1ccc(S(=O)(=O)N2CCC(C(N)=O)CC2)c2ccccc12,8.0%,-1.09,i
O=C(NCCN1CCCCC1)c1c(O)c2ccccc2[nH]c1=O,7.6%,0.35,i
CCOCCCn1c(SCC(=O)Nc2ccc(C(N)=O)cc2)nc2ccccc2c1=O,-1.6%,-0.45,i
CCN(CC)c1ccc(C2C(C(=O)OCCOC)=C(C)NC3=C2C(=O)CCC3)cc1 (stereo not given),-4.7%,1.07,i
CC(=O)c1cnc2cc(C)nn2c1C,0.7%,nt,i
CCc1ccc(C(=O)N2CCN(c3ccc(F)cc3)CC2)s1,2.3%,0.08,i
CC(C)CC(c1nnnn1CCc1ccccc1)N1CCC(C(N)=O)CC1 (stereo not given),1.3%,nt,i

# Quoted from the entries so far for reference:
SMILES,Hsc70,WNV protease inh,MT1-MMP promoter
CCc1ccc(C(=O)N2CCN(c3ccc(F)cc3)CC2)s1,2.3%,0.08,i
CC(C)CC(c1nnnn1CCc1ccccc1)N1CCC(C(N)=O)CC1 (stereo not given),1.3%,nt,i

# Next structures follow:
SMILES,Hsc70,WNV protease inh,MT1-MMP promoter
O=S(=O)(Nc1ccc2c(c1)OCCO2)c1ccc2oc3ccccc3c2c1,2.4%,1.16,i
N#CC1=C2C=Cc3ccccc3N2CCCC1=O,-3.3%,0.65,i
CCOC(=O)c1ccc(Nc2cc(C)nc(C)c2C(=O)OCC)cc1,5.5%,nt,i
CN(C)c1ccc(/C=C/C(O)=C2/C(=O)N(C)C3(C)CC2c2ccccc2O3)cc1 (stereo not given),-105.4%,0.6,i
CC1(C)CC(=O)C2=C(C1)NC(=O)CC2c1ccc(F)cc1 (stereo not given),-5.8%,-0.21,i
O=C(CN1C(=O)C2C3C=CC(C3)C2C1=O)NCc1ccc2c(c1)OCO2 (stereo not given),-0.7%,-0.54,i
COCCCNC(=O)c1c(N)n(/N=C/c2cccs2)c2nc3ccccc3nc12,-43.0%,0.14,i
CCc1ccccc1N(CC(=O)Nc1cccc(N(C)S(C)(=O)=O)c1)S(C)(=O)=O,-0.8%,-0.17,i
COc1cc(OC)cc(-c2cc3nc4c(c(N5CCN(c6cnccn6)CC5)n3n2)CCCC4)c1,2.6%,-0.77,i
CCc1nnc(N2CCN(c3ncnc4c3oc3ccccc34)CC2)s1,2.0%,-1.52,i
COCC(=O)Nc1cccc(Br)c1,3.5%,0.73,i
CCC(=O)c1cc2c(C)cc(=O)oc2c(C)c1OC,-0.5%,nt,i
Cc1ccc(CSC2=Nc3ccccc3C3=NC(CC(=O)NCc4ccco4)C(=O)N23)cc1 (stereo not given),-8.3%,0.45,i
Cc1ccc(Nc2nc(N)nc(CSCCO)n2)cc1,4.6%,nt,i
CN1CCN(C(=O)c2cc3nc(-c4ccccc4)cc(-c4ccccc4)n3n2)CC1,2.6%,nt,i
COC(=O)C(O)(NC(=O)NC(C)=O)C(F)(F)F (stereo not given),1.8%,0.39,i
COc1ccc(C)cc1NC(=O)c1nnn(Cc2cccc(F)c2)c1N,-2.2%,0.93,i
CCC(Oc1ccccc1)C(=O)N1CCC(C(N)=O)CC1 (stereo not given),-16.4%,1.68,i
CC(C)CCN1C(=O)c2ccc(C(=O)NCC3CCCO3)cc2C1=O (stereo not given),6.2%,-0.57,i
COc1ccccc1-c1cc(C2CC2)nc(N)c1C#N,-0.7%,0.3,i
COC(=O)c1nc2n(n1)C(c1cccc(Cl)c1)C1=C(CC(C)(C)CC1=O)N2 (stereo not given),1.0%,-1.73,i
CN(CCc1ccccn1)S(=O)(=O)c1ccccc1F,3.9%,-0.55,i
CN1CCN(CCN2CCn3c2nc2ccccc23)CC1,6.2%,-0.33,i
CC1CCc2c(sc3nn[nH]c(=O)c23)C1 (stereo not given),-2.7%,nt,i
CCCC(=O)Nc1nnc(COC)s1,-1.3%,0.29,i
COCCn1nnnc1CN(Cc1cccnc1)Cc1cc2cc(OC)ccc2[nH]c1=O,-5.3%,-0.49,i
O=c1cc(CO)oc(CN2CCC(Cc3ccccc3)CC2)c1O,0.9%,-0.79,i
CCN(CC)S(=O)(=O)c1cccc(C(=O)N2CCCCC2)c1,3.0%,-0.86,i
Cc1nn(CC(=O)Nc2ccccn2)c(=O)c2ccccc12,7.8%,-0.44,i
CCN1CCN(Cc2cccc(Oc3ccccc3)c2)CC1,0.7%,nt,i
COC(=O)c1ccc(COC(=O)c2ccc(CS(=O)(=O)c3ccc(C)cc3)cc2)cc1,1.3%,nt,i
COC(=O)c1ccccc1NC(=O)Nc1cnccn1,-3.9%,1.84,i
CC(=O)NC(=O)NC1CSCC1OC(C)=O (stereo not given),-1.1%,0.38,i
CC(C)(C)NC(=O)NC(=O)COc1ccccn1,6.6%,0.27,i
COc1ccccc1CNC(=O)CC(NS(=O)(=O)c1ccc(C)cc1)c1ccco1 (stereo not given),0.6%,0.9,i
CCOC(=O)c1cccc(NC(=O)C2CCCN(S(=O)(=O)c3cnc[nH]3)C2)c1 (stereo not given),2.0%,-1.63,i
COc1ccc(NC(=O)C2CCCN2S(=O)(=O)c2ccc3c(c2)CCC(=O)N3)cc1 (stereo not given),-2.7%,0.34,i
Cc1ccc(S(=O)(=O)C2(C(=O)NCc3ccc4c(c3)OCO4)CC2)cc1,3.4%,-0.81,i
COc1cc(OC)cc(C(=O)Nc2cccc(NC(C)=O)c2)c1,1.0%,-0.36,i
c1ccc(Nc2nc(-c3ccncc3)cs2)nc1,5.3%,-0.37,i
COC(=O)CCC(=O)N1CCc2cc(S(=O)(=O)N3CCc4ccccc43)ccc21,-4.0%,1.16,i
CC(C)(C)n1nnnc1C(c1cccc(C#N)c1)N1CCC(Cc2ccccc2)CC1 (stereo not given),-31.5%,0.13,i
O=C1C(C=NCCCN2CCCC2=O)=C(O)c2ccccc21,-7.7%,-0.06,i
CC(C)C(=O)Nc1cccc(C(=O)NCc2ccc(S(N)(=O)=O)cc2)c1,-0.5%,1.17,i
O=C(NCc1ccco1)c1ccc2c(c1)N(Cc1ccccc1)C(=O)CS2,-2.3%,nt,i
COc1cc2[nH]c(=S)n(CC3CCCO3)c(=O)c2cc1OC (stereo not given),-4.4%,-0.04,i
Cc1ccccc1N(C)C(=O)c1coc(=O)c2ccccc12,2.8%,nt,i

# Screening results from PubChem BioAssay.
